B2AR ag = human beta-2 adrenergic receptor agonism by FAP; hit rate 0.43% among 340,000; P07550; response, % (test concentration not listed); AID 504454; Am2.2-beta2AR cells, FAP receptor internalization, flow cytometry; reference of the scale not given here;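 active = response above a set limit, near 3 SD of response in nonfluorescent compounds, cut at about 42% in these data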;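 note: stock transfer was 100 nL into about 11 µL; a reference agonist was the positive control; negative values mostly stem from fluorescent compounds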
Target sequence (P07550 whole entry, looked up): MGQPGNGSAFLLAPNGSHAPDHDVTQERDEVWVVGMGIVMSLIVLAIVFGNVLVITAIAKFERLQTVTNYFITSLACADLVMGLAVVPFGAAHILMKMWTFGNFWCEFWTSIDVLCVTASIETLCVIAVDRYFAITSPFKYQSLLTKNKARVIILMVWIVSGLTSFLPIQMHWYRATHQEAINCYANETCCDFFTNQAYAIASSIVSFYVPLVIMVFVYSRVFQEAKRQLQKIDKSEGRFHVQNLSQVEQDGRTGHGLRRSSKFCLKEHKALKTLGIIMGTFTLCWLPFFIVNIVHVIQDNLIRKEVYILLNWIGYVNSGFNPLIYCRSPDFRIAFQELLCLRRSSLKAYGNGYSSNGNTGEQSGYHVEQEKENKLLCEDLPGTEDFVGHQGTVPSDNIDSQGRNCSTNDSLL
Beta cell apopt = beta cell apoptosis inhibition; hit rate 0.8% among 300,000; INS-1E cytokine-induced death, ATP luminescence, 48 h; percent of positive-control rescue, neutral wells zero; protection from apoptosis, % (test concentration not listed);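 active = all replicates at 75% or more, or half of them and the mean; inconclusive = half reach 75% but not the mean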;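 note: 0% = cytokine-treated negative control wells and 100% = positive control rescue; higher means more ATP so stronger rescue from cytokine killing; wells of about 40 µL received 100 nL stock; the first replicate is given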
T cruzi inh = T. cruzi replication inhibition; T. cruzi beta-gal in NIH3T3, luminescence, 90 h; inhibition, % (no concentration beside the values); hit rate 1.4% among 300,000;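 active = mean inhibition across valid replicates above about 55%, limit read from the data; inconclusive = mean below that limit but half or more replicates reach it; inactive = mean below it, under half of replicates reach it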;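 note: signal also drops with host cell toxicity which is not excluded here; 0% = plate median of DMSO wells and 100% = zero luminescence signal; higher percent means less beta-gal luminescence so fewer parasites; stock transfer was 50 nL into about 50 µL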
UCH37 DUB inh = human UCH37 deubiquitinating enzyme inhibition; purified proteasome/UCH37, Ub-AMC cleavage fluorescence; Q9Y5K5; hit rate 0.33% among 330,000; inhibition, % (concentration not given with the values);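 active = mean of two replicates above 20%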;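 note: 0% = compound-free wells with enzyme and 100% = wells lacking proteasome; stock transfer was 100 nL into about 20 µL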
Target sequence (Q9Y5K5 whole entry, looked up): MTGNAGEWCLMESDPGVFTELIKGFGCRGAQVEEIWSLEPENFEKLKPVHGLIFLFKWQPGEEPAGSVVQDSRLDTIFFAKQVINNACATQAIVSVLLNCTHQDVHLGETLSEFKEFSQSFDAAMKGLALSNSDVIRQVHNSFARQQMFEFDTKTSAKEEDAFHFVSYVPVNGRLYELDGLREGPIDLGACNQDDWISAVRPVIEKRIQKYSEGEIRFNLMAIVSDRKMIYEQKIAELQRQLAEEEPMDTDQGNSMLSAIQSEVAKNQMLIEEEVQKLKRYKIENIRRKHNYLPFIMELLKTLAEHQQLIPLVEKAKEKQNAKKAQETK
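System: Proteasome-associated human UCH37 deubiquitinase; Input: 0.15 nM proteasome in added enzyme buffer; Also added: Ub-AMC substrate from 1 µM stock; Incubation: 30 min compound-proteasome preincubation then 25 min substrate reaction, room temperature; Detection: fluorescence, ex 355 nm, em 460 nm; Read-out: % inhibition of Ub-AMC cleavage fluorescence; Benchmarks: no-proteasome and no-compound wells.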
LANA-H2A inh = blocks KSHV LANA binding to histone H2A/H2B | Q9QR71 | cell-free LANA-H2A/H2B peptide, fluorescence polarization | inhibition, % (test concentration not listed) | hit rate 0.6% among 320,000; in the data active = inhibition mostly above about 10%, no sharp cut-off; inactive = mostly below about 6.7%;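 note: stock transfer was 7.5 nL into about 10 µL; 0% = median of vehicle wells and 100% = median of positive control wells; one replicate is shown; the record names a cut of 25% in any replicate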
A1 inh = inhibitors of the anti-apoptotic protein A1, read as caspase activation; MEF A1-2A-BIM cells, Caspase-Glo 3/7 luminescence, 3 h; percent of clofoctol response, vehicle zero; caspase activation, % (concentration not given with the values); hit rate 0.066% among 330,000; AID 2462;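 active = over half of replicate activation scores above 10%, or exactly half above 10 with the replicate mean above 10; inconclusive = replicate mean below 10 yet half the replicates above 10; inactive = over half of replicates below 10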;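 note: wells of about 30 µL received 50 nL stock; many hits fall short of the cut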
RanGTP-Imp inh = inhibitors of RanGTP-importin-beta interaction, primary screen, biochemical, FRET, CFP-Ran, YFP-importin-beta, homogeneous. hit rate 1.1% among 300,000. cell-free CFP-Ran/YFP-importin-beta FRET ratio. inhibition, % (no concentration beside the values);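 active = most replicates above 15%; inconclusive = exactly half above 15%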;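 note: 0% = DMSO wells and 100% = Ran loaded with GDP instead of GTP; wells of about 40 µL received 100 nL stock; the first replicate is given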
Calb FLC = C. albicans growth modulation with fluconazole; C. albicans CaCi-2 (fluconazole-resistant clinical isolate) + fluconazole, Alamar Blue growth, 48 h; growth inhibition, % (no concentration beside the values); AID 1979; hit rate 0.57% among 300,000;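 active = most replicates above 75%; inconclusive = exactly half above 75%; inactive = most below 75%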;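 note: all wells also contain fluconazole at 8 µg/ml as a sub-toxic cotreatment; 0% = median of DMSO wells and 100% = median of geldanamycin control wells; wells of about 8 µL received 7.5 nL stock; the first replicate is given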
Active calls of the source: *.

What do the screens show for `CC1CCc2nc(NC(=O)CN3CCN(c4ccc(F)cc4)CC3)sc2C1` (stereo not given)?
B2AR ag: -4; Beta cell apopt: -9; T cruzi inh: 19; UCH37 DUB inh: 0.8; LANA-H2A inh: -1.9; A1 inh: -0.5; RanGTP-Imp inh: 1.6; Calb FLC: 11

Results for O=C1CN(C(=O)c2ccc(Br)o2)C(c2ccc(F)cc2)c2cc(Cl)ccc2N1 (stereo not given) ?
B2AR ag: 19; Beta cell apopt: 1; T cruzi inh: 22; UCH37 DUB inh: 3.4; LANA-H2A inh: -4.4; A1 inh: 1.1; RanGTP-Imp inh: -3.7; Calb FLC: -33

What do the screens show for `CC(Nc1nc(-c2cccnc2)nc2ccccc12)c1ccc(F)cc1` (stereo not given)?
B2AR ag: 4; Beta cell apopt: 8; T cruzi inh: 56*; UCH37 DUB inh: -0.1; LANA-H2A inh: 0.6; A1 inh: 0.1; RanGTP-Imp inh: 5.3; Calb FLC: -3

Results for CCOC(=O)C1=CC[C@@H](c2cc3ccc(OC)cc3n2C)N(S(=O)(=O)c2ccc(C)cc2)[C@H]1C(=O)OCC ?
B2AR ag: 7; Beta cell apopt: -2; UCH37 DUB inh: 3.7; LANA-H2A inh: -1.8; A1 inh: 0.5

How did COc1ccc(NC(=O)CN2CCc3ccccc3C2)c([N+](=O)[O-])c1 do in these assays?
B2AR ag: -12; Beta cell apopt: 2; T cruzi inh: 19; UCH37 DUB inh: 4.8; LANA-H2A inh: 1.6; A1 inh: 0.7; RanGTP-Imp inh: 6.6; Calb FLC: -17

How did COc1ccc(O)c(/C=N/NC(=S)NCCc2ccccc2)c1 do in these assays?
B2AR ag: 6; Beta cell apopt: 21; T cruzi inh: -6; LANA-H2A inh: -4.9; A1 inh: -1.2; RanGTP-Imp inh: 4.8; Calb FLC: -4

What do the screens show for `CN(Cc1ccccc1)Cc1ccccc1F`?
B2AR ag: 8; Beta cell apopt: -9; T cruzi inh: 1; UCH37 DUB inh: 1.2; LANA-H2A inh: -2.4; A1 inh: 0.6; RanGTP-Imp inh: 4.6; Calb FLC: 6

What do the screens show for `CC(C)(C)OC(=O)C[C@@H]1C/C=C\C[C@H](CC(=O)NCCO)C(=O)N[C@@H](c2ccccc2)COC1=O`?
B2AR ag: 1; Beta cell apopt: -6; UCH37 DUB inh: 4.8; LANA-H2A inh: -4.5; A1 inh: -0.3

How did O=C(Nc1ccc(NC(=O)C2CCCCC2)nc1)c1ccco1 do in these assays?
B2AR ag: -6; Beta cell apopt: 6; T cruzi inh: -5; UCH37 DUB inh: 3.9; LANA-H2A inh: 0.1; A1 inh: -0.8; RanGTP-Imp inh: 1.4; Calb FLC: 2

What do the screens show for `CC(=O)C1=C(O)CCC1=NCCc1ccccc1`?
B2AR ag: 2; Beta cell apopt: -9; T cruzi inh: -17; UCH37 DUB inh: 1.3; LANA-H2A inh: -0.6; A1 inh: 0.1; RanGTP-Imp inh: -4.3; Calb FLC: 4

Results for Cc1ccc(/C=C/C(=O)c2ccc([N+](=O)[O-])o2)cc1 ?
Beta cell apopt: 109*; T cruzi inh: 25; LANA-H2A inh: -4.1; A1 inh: 7.9*; RanGTP-Imp inh: 2.4; Calb FLC: 48

What do the screens show for `Cc1ccc(C(=O)N2CCC(n3nccc3NC(=O)C3CCOC3)CC2)cc1` (stereo not given)?
B2AR ag: 2; Beta cell apopt: 1; T cruzi inh: 4; UCH37 DUB inh: 2.0; LANA-H2A inh: -1.9; A1 inh: 0.1; RanGTP-Imp inh: 2.7; Calb FLC: -4

What do the screens show for `Cc1ccc(S(=O)(=O)NNC(=S)NC(C)(C)C)cc1`?
B2AR ag: 0; Beta cell apopt: 0; T cruzi inh: -7; UCH37 DUB inh: 5.2; LANA-H2A inh: -2.5; A1 inh: 2.5; RanGTP-Imp inh: -0.2; Calb FLC: 2

How did Cc1nnc(NC(=O)C(C)Sc2nnc(CNC(=O)c3ccccc3F)n2C)s1 (stereo not given) do in these assays?
B2AR ag: -10; T cruzi inh: -4; UCH37 DUB inh: -0.2; LANA-H2A inh: 2.5; A1 inh: 0.0; RanGTP-Imp inh: 2.5; Calb FLC: 3

How did Cc1ccc(S(=O)(=O)N2CCN(C(=O)c3n[nH]c4ccccc34)CC2)cc1 do in these assays?
B2AR ag: -4; Beta cell apopt: 1; UCH37 DUB inh: 0.8; LANA-H2A inh: 1.9; A1 inh: 0.1

3 compounds from above, ordered by count of non-hydrogen atoms, high to low:
What do the screens show for `Cc1ccc(C(=O)N2CCC(n3nccc3NC(=O)C3CCOC3)CC2)cc1` (stereo not given)?
B2AR ag: 2; Beta cell apopt: 1; T cruzi inh: 4; UCH37 DUB inh: 2.0; LANA-H2A inh: -1.9; A1 inh: 0.1; RanGTP-Imp inh: 2.7; Calb FLC: -4

What do the screens show for `CC(Nc1nc(-c2cccnc2)nc2ccccc12)c1ccc(F)cc1` (stereo not given)?
B2AR ag: 4; Beta cell apopt: 8; T cruzi inh: 56*; UCH37 DUB inh: -0.1; LANA-H2A inh: 0.6; A1 inh: 0.1; RanGTP-Imp inh: 5.3; Calb FLC: -3

How did COc1ccc(O)c(/C=N/NC(=S)NCCc2ccccc2)c1 do in these assays?
B2AR ag: 6; Beta cell apopt: 21; T cruzi inh: -6; LANA-H2A inh: -4.9; A1 inh: -1.2; RanGTP-Imp inh: 4.8; Calb FLC: -4

Looked up one by one from the entries so far:
What do the screens show for `CC(Nc1nc(-c2cccnc2)nc2ccccc12)c1ccc(F)cc1` (stereo not given)?
B2AR ag: 4; Beta cell apopt: 8; T cruzi inh: 56*; UCH37 DUB inh: -0.1; LANA-H2A inh: 0.6; A1 inh: 0.1; RanGTP-Imp inh: 5.3; Calb FLC: -3

Results for Cc1ccc(/C=C/C(=O)c2ccc([N+](=O)[O-])o2)cc1 ?
Beta cell apopt: 109*; T cruzi inh: 25; LANA-H2A inh: -4.1; A1 inh: 7.9*; RanGTP-Imp inh: 2.4; Calb FLC: 48

The results go on:
How did C=CCOC(=O)C1=C(C)Nc2nnnn2C1c1cc(OC)ccc1OC (stereo not given) do in these assays?
B2AR ag: -1; Beta cell apopt: -1; T cruzi inh: 9; UCH37 DUB inh: 2.3; LANA-H2A inh: 10; A1 inh: 0.1; RanGTP-Imp inh: 1.2; Calb FLC: -11

What do the screens show for `CCCN1CCN(C(=S)Nc2ccccc2C(F)(F)F)CC1`?
B2AR ag: -7; Beta cell apopt: 25; T cruzi inh: -1; UCH37 DUB inh: -0.8; LANA-H2A inh: -1.4; A1 inh: 0.6; RanGTP-Imp inh: 0.2; Calb FLC: -14

How did CC(C)CN(C(=O)c1cccc(F)c1)c1c(N)n(CC(C)C)c(=O)[nH]c1=O do in these assays?
B2AR ag: 5; Beta cell apopt: 0; T cruzi inh: -3; UCH37 DUB inh: -1.0; LANA-H2A inh: 0.1; A1 inh: 0.1; RanGTP-Imp inh: inconclusive; Calb FLC: -2

How did COc1ccccc1CN1CCC(CNS(=O)(=O)c2cc(-c3cc(C)no3)ccc2C)CC1 do in these assays?
B2AR ag: 17; Beta cell apopt: -10; T cruzi inh: 29; UCH37 DUB inh: 3.3; LANA-H2A inh: -4.5; A1 inh: 0.0; RanGTP-Imp inh: -0.6; Calb FLC: 19

How did NC(=O)CC(NC(=O)Cc1ccc(Cl)cc1)c1ccc(NCC2CC2)c([N+](=O)[O-])c1 (stereo not given) do in these assays?
B2AR ag: -12; Beta cell apopt: -9; T cruzi inh: -5; UCH37 DUB inh: 1.9; LANA-H2A inh: -1.5; A1 inh: -0.1; RanGTP-Imp inh: -3.2; Calb FLC: -17

Results for O=S(=O)(c1ccc(F)cc1)N1CCC(n2cnc3ccccc32)CC1 ?
B2AR ag: 0; Beta cell apopt: -1; T cruzi inh: 5; UCH37 DUB inh: 0.9; LANA-H2A inh: 2.4; A1 inh: -1.0; RanGTP-Imp inh: -1.4; Calb FLC: 3

What do the screens show for `COc1cc2ccc(=O)oc2cc1OCC(O)C(C)(C)O` (stereo not given)?
B2AR ag: 2; Beta cell apopt: -5; T cruzi inh: -11; UCH37 DUB inh: -385; LANA-H2A inh: -0.2; A1 inh: -0.6; RanGTP-Imp inh: 0.9; Calb FLC: 8

Results for COc1ccccc1/C=C1\SC(=S)N(CCC(=O)NCCCn2ccnc2)C1=O ?
B2AR ag: -7; T cruzi inh: 0; UCH37 DUB inh: 5.8; LANA-H2A inh: -8.0; A1 inh: -1.0; RanGTP-Imp inh: -2.2; Calb FLC: -1

How did COc1ccc(OC)c(C2C(C(=O)Nc3ccc(F)cc3)=C(C)Nc3nc(CCCO)nn32)c1 (stereo not given) do in these assays?
B2AR ag: -25; Beta cell apopt: -8; UCH37 DUB inh: 2.3; LANA-H2A inh: 8.3; A1 inh: 0.5

What do the screens show for `O=C(O)c1cc([N+](=O)[O-])c(Sc2nc3ccccc3[nH]2)c([N+](=O)[O-])c1`?
B2AR ag: -1; Beta cell apopt: -3; T cruzi inh: -14; UCH37 DUB inh: 5.4; LANA-H2A inh: 3.4; A1 inh: 0.0; RanGTP-Imp inh: 1.5; Calb FLC: -4

What do the screens show for `Cc1ccc(C(=O)OC2CCS(=O)(=O)c3sccc32)cc1` (stereo not given)?
B2AR ag: 0; Beta cell apopt: 4; T cruzi inh: -2; UCH37 DUB inh: 0.8; LANA-H2A inh: 4.1; A1 inh: -1.5; RanGTP-Imp inh: 0.8; Calb FLC: 4

How did COc1ccc(-c2nc3c4ccccc4ccn3c2C=O)cc1 do in these assays?
B2AR ag: -21; Beta cell apopt: 8; T cruzi inh: 10; UCH37 DUB inh: -26; LANA-H2A inh: -0.8; A1 inh: -0.2; RanGTP-Imp inh: -8.8; Calb FLC: 16

Results for CN(CC(=O)Nc1ccccc1Br)Cc1nc2ccccc2c(=O)[nH]1 ?
B2AR ag: 0; Beta cell apopt: -7; T cruzi inh: 2; UCH37 DUB inh: -0.1; LANA-H2A inh: -2.9; A1 inh: -2.2; RanGTP-Imp inh: -0.8; Calb FLC: 2

How did On1nnc2cc(C(F)(F)F)ccc21 do in these assays?
B2AR ag: 5; Beta cell apopt: -5; T cruzi inh: 4; UCH37 DUB inh: 3.6; LANA-H2A inh: -8.2; A1 inh: 0.2; RanGTP-Imp inh: 1.7; Calb FLC: 37

How did Cc1nn(Cc2ccccc2)c2c1C(c1ccco1)C(C#N)=C(N)O2 (stereo not given) do in these assays?
B2AR ag: -3; Beta cell apopt: -17; T cruzi inh: -8; UCH37 DUB inh: 0.4; LANA-H2A inh: 1.1; A1 inh: -0.4; RanGTP-Imp inh: 0.3; Calb FLC: -12

What do the screens show for `COCCn1cnnc1SCC(=O)c1ccc(S(=O)(=O)N2CCCC2)cc1`?
B2AR ag: -4; Beta cell apopt: 3; T cruzi inh: -3; UCH37 DUB inh: -2.2; LANA-H2A inh: -6.0; A1 inh: 1.0; RanGTP-Imp inh: 0.0; Calb FLC: -3

Results for CCOC(=O)C1=C(C)NC(=S)NC1c1cccs1 (stereo not given) ?
B2AR ag: 6; T cruzi inh: -7; UCH37 DUB inh: 0.6; LANA-H2A inh: -2.6; A1 inh: 0.2; RanGTP-Imp inh: 6.2; Calb FLC: -4

Source: PubChem BioAssay

Compounds were not picked by outcome. Share with any hit: about 4.3%.
